Assay outcomes from PubChem.
nsP2pro inh = inhibitors of chikungunya virus nsP2 protease; FRET peptide cleavage, nsP2pro, fluorescence 1 h; Potency, µM (doses to about 24.9 µM), inactives show at the highest dose activity change, negative = inhibition, actives largely listed as inhibitors; AID 1964107; Q8JUX6; actives 1.1% (n = 31,000); active means well fitted inhibition curve with a large enough effect; inconclusive means small, poorly fitted or top-dose-only effect; inactive means no such curve, though single readings can be large or run the other way; further: nearly all actives have a fitted effect of over 60% in size; a reference inhibitor and vehicle were the controls
Target sequence (Q8JUX6 whole entry, looked up): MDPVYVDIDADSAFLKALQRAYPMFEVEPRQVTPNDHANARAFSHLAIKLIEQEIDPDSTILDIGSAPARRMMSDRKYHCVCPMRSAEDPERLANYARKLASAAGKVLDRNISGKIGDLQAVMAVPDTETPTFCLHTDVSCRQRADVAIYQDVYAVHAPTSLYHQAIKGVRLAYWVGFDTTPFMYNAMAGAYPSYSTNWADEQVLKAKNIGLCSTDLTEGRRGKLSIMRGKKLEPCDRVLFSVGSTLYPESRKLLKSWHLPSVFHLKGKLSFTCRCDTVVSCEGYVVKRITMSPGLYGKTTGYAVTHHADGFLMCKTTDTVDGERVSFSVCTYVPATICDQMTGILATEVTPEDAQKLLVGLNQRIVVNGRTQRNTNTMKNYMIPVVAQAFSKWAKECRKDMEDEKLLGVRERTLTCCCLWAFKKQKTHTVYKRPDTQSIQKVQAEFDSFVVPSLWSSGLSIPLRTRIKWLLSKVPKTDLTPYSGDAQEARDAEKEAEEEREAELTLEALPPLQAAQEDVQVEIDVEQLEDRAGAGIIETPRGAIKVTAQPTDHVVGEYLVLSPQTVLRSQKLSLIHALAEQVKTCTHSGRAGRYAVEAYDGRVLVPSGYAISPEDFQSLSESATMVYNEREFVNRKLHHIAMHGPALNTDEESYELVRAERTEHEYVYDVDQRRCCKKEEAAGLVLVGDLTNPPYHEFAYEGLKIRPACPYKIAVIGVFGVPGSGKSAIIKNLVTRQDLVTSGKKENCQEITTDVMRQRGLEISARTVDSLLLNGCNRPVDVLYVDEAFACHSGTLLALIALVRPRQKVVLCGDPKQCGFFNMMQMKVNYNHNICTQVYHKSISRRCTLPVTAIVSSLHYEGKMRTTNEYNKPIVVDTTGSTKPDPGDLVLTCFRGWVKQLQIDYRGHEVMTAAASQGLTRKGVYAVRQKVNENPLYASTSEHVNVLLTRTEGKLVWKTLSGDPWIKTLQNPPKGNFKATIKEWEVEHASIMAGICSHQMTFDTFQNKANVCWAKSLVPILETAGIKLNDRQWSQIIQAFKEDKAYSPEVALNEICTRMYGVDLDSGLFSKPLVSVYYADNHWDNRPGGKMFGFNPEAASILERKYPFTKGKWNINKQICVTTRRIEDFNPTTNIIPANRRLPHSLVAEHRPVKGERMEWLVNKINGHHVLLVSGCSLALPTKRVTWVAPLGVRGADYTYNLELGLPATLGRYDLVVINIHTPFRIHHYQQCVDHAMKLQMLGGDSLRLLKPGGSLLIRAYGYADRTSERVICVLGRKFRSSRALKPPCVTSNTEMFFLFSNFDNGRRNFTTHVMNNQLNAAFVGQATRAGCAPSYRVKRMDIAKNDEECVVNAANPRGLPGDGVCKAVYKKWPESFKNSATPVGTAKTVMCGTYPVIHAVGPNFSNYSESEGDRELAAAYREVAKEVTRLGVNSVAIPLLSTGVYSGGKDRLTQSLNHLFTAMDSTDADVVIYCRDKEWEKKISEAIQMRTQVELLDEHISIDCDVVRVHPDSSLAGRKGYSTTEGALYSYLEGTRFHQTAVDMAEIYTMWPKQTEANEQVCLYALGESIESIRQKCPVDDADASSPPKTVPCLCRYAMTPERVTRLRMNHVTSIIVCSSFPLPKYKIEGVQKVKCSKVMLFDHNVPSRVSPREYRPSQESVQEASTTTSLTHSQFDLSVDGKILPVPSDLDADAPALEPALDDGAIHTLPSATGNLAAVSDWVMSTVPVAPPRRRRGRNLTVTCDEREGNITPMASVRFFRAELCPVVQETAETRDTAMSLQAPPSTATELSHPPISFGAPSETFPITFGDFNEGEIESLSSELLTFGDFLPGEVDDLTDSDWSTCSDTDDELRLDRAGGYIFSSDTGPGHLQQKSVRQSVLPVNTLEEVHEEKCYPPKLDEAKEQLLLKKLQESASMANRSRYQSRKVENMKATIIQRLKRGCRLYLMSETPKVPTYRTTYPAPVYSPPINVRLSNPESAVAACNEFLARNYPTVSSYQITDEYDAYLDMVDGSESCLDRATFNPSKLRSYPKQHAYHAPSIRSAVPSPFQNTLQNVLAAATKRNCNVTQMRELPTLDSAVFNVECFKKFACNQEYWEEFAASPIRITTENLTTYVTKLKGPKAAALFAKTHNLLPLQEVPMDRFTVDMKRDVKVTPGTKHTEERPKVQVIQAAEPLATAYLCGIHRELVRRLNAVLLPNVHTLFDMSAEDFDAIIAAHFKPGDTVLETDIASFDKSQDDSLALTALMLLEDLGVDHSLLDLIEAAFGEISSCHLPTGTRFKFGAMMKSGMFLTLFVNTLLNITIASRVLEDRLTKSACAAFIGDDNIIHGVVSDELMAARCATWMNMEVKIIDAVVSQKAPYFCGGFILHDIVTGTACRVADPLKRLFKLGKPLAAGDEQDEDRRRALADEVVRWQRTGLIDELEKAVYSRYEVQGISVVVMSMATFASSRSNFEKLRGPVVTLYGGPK
* hit, by the source's call; i = inactive; ? = inconclusive; & = joins results of further samples; [ ] = another dose, or the depositor's remark. On the % scale 0 is the no-effect control and ±100 the full control effect; potency means the concentration at half of the fitted maximal effect. This is a subset, so the mix of outcomes need not match the whole.

A first look (5 entries):
mol	nsP2pro inh
Cc1ccccc1CN1C(=O)C(O)(CC(=O)c2cccc(Br)c2)c2ccccc21 (stereo unspecified)	-15.4%
Cc1cc2nn(-c3ccccc3)nc2cc1NC(=O)COc1ccc(Cl)cc1	-11.6%
COc1ccccc1NC(=O)c1ccccc1NC(=O)c1ccccc1	-31.2%
Cc1ccc(-c2cc(C(F)(F)F)n3ncc(-c4ccc(Cl)cc4)c3n2)cc1	-23.3%
O=C(Nc1cc(C(F)(F)F)cc(C(F)(F)F)c1)c1cnc(Cl)nc1C(F)(F)F	-24.7%

This part in full, from the start:
mol	nsP2pro inh
Cc1ccccc1CN1C(=O)C(O)(CC(=O)c2cccc(Br)c2)c2ccccc21 (stereo unspecified)	-15.4%
Cc1cc2nn(-c3ccccc3)nc2cc1NC(=O)COc1ccc(Cl)cc1	-11.6%
COc1ccccc1NC(=O)c1ccccc1NC(=O)c1ccccc1	-31.2%
Cc1ccc(-c2cc(C(F)(F)F)n3ncc(-c4ccc(Cl)cc4)c3n2)cc1	-23.3%
O=C(Nc1cc(C(F)(F)F)cc(C(F)(F)F)c1)c1cnc(Cl)nc1C(F)(F)F	-24.7%
O=C1Nc2ccccc2CC12CCCN(C1COC1)C2 (stereo unspecified)	-3.8%[39.2 µM]
Cn1c2ccsc2c2cnn(Cc3ccccc3F)c(=O)c21	-7.9%
Cc1onc(-c2ccccc2)c1C(=O)N[C@@H]1C(=O)N2[C@@H]1SC(C)(C)[C@@H]2C(=O)O	-2.3%&9.3%&12.5%
CCN(c1ncnc2c1cnn2-c1ccc(C)cc1)C1CCCCC1	-18.5%
CCn1c(=O)c2sccc2n2c(CCCC(=O)N3CCN(c4cc(Cl)ccc4C)CC3)nnc12	-4.7%
COc1ccc(C(=O)OCC#CCSc2nnc(-c3cccc4ccccc34)o2)cc1	-0.4%
COc1cccc(CNc2ccc(S(=O)(=O)Nc3nccs3)cc2)c1O	i
Cc1cnc(C2CC2)n1CCNC(=O)NC1CCCCC1	i
CCOc1ccc(Nc2c(S(=O)(=O)c3ccc(C)cc3)cnc3cc(OC)c(OC)cc23)cc1	-9.0%
COc1ccccc1CNC(=O)CCn1nc(C)c2c(C)n(-c3ccccc3)nc2c1=O	-23.2%
CC(=O)NC(Cc1ccccc1)C(=O)NC(C(=O)O)C(C)C (stereo unspecified)	-13.6%
CC(=O)Nc1ccc(S(=O)(=O)Nc2nc3n(n2)C(c2ccccc2)C=C(c2ccc(Cl)cc2)N3)cc1 (stereo unspecified)	28.0%
CCN(CC)c1ccc(C(=C2C=CC(=[N+](CC)CC)C=C2)c2cc(S(=O)(=O)O)ccc2S(=O)(=O)[O-])cc1	-22.2%
Cc1cc(Br)ccc1NC(=O)CSc1c2c(nc3ccccc13)CCC2	-12.7%
Cc1ccc(NS(=O)(=O)c2cc3c(cc2N[C@@H](C)CO)NC(=O)CC3)cc1C	?
CN1C(=O)CC(C(=O)Nc2ccc(C(=O)O)cc2)SC1=Nc1ccc(Cl)cc1 (stereo unspecified)	-17.6%
COc1ccc2oc(=O)cc(CN3CCN(C(=O)c4ccccc4F)CC3)c2c1	-13.2%
Cc1nn(CCCC(=O)Nc2cccc(C(F)(F)F)c2)c(=O)c2nn(-c3ccccc3)c(C)c12	-17.7%
COCCN1CCOC[C@H]2CCN(C(=O)c3cnccn3)C[C@H]21	-23.4%
Cc1c(Cl)cccc1NC(=O)N1CCN(C(=O)c2nsc3ccccc23)CC1	-22.7%
CC(=O)Nc1sc2c(c1-c1ccc(Cl)cc1)CCNC2	-10.6%
COCCNc1nc(C)nc2c1nc(-c1ccccc1)n2CCN1CCCC1	0.5%
CCOC(=O)c1c(NC(=O)CSc2cn(CCNC(=O)c3ccc(OC)c(OC)c3)c3ccccc23)sc2c1CCCC2	-13.6%
CC[C@@H]1/C=C/C=C/C[C@H](C)C(O)[C@](C)(O)C(=O)[C@H](C)C(O)[C@H](C)C(=O)[C@H](C)[C@@H](O)[C@H](C)/C=C/C(=O)O[C@H]2[C@@H](C)[C@@H](CC1)O[C@]1(O[C@H](C[C@H](C)O)[C@H](C)CC1=O)[C@@H]2C (stereo partly specified)	-5.7%[5.1 µM]
Cc1nn(-c2ccccn2)c(C)c1[C@@H]1C=C[C@@H](NC(=O)CC(C)(C)CC(=O)O)C1	-11.2%[39.2 µM]
c1coc(-c2ccc3ncnc(NCc4cccs4)c3c2)c1	-6.3%
COc1cccc2cc(-c3csc(-c4ccc(Cl)cc4)n3)c(=O)oc12	-12.7%
CN1CCC(C(=O)c2cccc(NC(=O)c3c(F)cc(F)cc3F)n2)CC1	-14.9%
Cc1ccc(C)c(NC(=O)Cn2c(=O)ccc3cc(S(=O)(=O)N4CCCC4)ccc32)c1	-20.2%
COc1ccc(C2Nc3ccccc3C(=O)N2Cc2ccncc2)cc1COc1c(C)cc(NC(C)=O)cc1C (stereo unspecified)	i
CCC(C)(C)NC(=O)C1CCN(S(=O)(=O)c2c(C)noc2/C=C/c2ccc(C)cc2)CC1	-11.9%
C=CCn1c(CN2CCC3(CC(=O)NC3=O)C2)nc2ccccc21 (stereo unspecified)	i
Oc1ccc(CCc2ccccc2F)c2cccnc12	i
COc1cccc2c1OCCCN(c1cc(C3CC(O)C3)nc(N)n1)C2 (stereo unspecified)	2.5%
C[C@@H]1C(=O)O[C@H]2[C@H]1CC[C@@]1(C)C(=O)C=C[C@@](C)(O)[C@H]21	?
COCCn1c(=O)c2c(n1Cc1ccccc1)CN(C(=O)Cc1cccc(F)c1)CC2	2.0%[39.2 µM]
CCOc1ccc(CNc2nc3nc(C)c(Cc4ccccc4)c(=O)n3[nH]2)cc1	-14.1%
CCC1c2nccn2CCCN1C(=O)Cn1c(=O)oc2ccccc21 (stereo unspecified)	i
CCOC(=O)c1ccc(Nc2nc(N)c3cc(OC)c(OC)cc3n2)cc1	14.8%
CCc1cccc(CC)c1NC(=O)c1nn(C)c2c1CCc1cnc(Nc3ccc(C(=O)NC4CCN(C)CC4)cc3OC(F)(F)F)nc1-2	98.5%[activator][10 µM]
CCCCNC(=O)c1cnn2c(C)c(Cc3c(F)cccc3Cl)c(C)nc12	-13.8%
C[C@@H]1C[C@H]2[C@@H]3CCC4=CC(=O)C=C[C@]4(C)[C@@]3(F)[C@@H](O)C[C@]2(C)[C@@]1(O)C(=O)CO	-4.9%
CCn1nc(C(C)C)cc1C(=O)N1C[C@@H]2CCN(C)C[C@]2(C(=O)O)C1	i
Cc1nnc2n1CCC(N(C)C(=O)NC1CCCCC1)CC2 (stereo unspecified)	3.5%
O=C(NCCc1ccccc1)C1CCN(c2nc(-c3ccc(Br)cc3)cs2)CC1	-21.7%

Laid out differently: results already given.
C[C@@H]1C[C@H]2[C@@H]3CCC4=CC(=O)C=C[C@]4(C)[C@@]3(F)[C@@H](O)C[C@]2(C)[C@@]1(O)C(=O)CO
  nsP2pro inh: -4.9%

CCn1nc(C(C)C)cc1C(=O)N1C[C@@H]2CCN(C)C[C@]2(C(=O)O)C1
  nsP2pro inh: i

New compounds follow
mol	nsP2pro inh
CCOc1ccc(C(=O)Nc2ccc3nc(SCC(=O)N4CCc5ccccc54)sc3c2)cc1	-20.9%
Nc1nc2nc(-c3ccccc3)cc(=O)n2[nH]1	-14.2%
COc1cc(C2Oc3c(OC)cc(/C=C/C(=O)OC[C@H]4O[C@@H](OC(C)(C)C(=O)O)[C@H](O)[C@@H](O)[C@@H]4O)cc3C2CO)ccc1O (stereo partly specified)	-7.0%[10 µM]
CNC(=O)Cn1nc(-c2ccc(Cl)cc2)c2ccccc2c1=O	-11.7%
CCCCN(C)C(=O)C1CCC(CNS(=O)(=O)c2ccc(Cl)cc2)CC1 (stereo unspecified)	-11.8%
COc1ccc(-n2c(C)nc3cc(C(=O)NC4CCCCCC4)ccc32)cc1	3.4%
COCC1CN(C(C)=O)CC12CCN(S(=O)(=O)c1ccc(OC)cc1)CC2 (stereo unspecified)	3.4%
COc1cc2c(cc1O)C(c1ccc(O)cc1)C(C)C(C)C2 (stereo unspecified)	30.1%
CC(=O)NC1CCN(C(=O)c2coc(COc3cccc(C(F)(F)F)c3)n2)C1 (stereo unspecified)	5.0%
Cc1ccc2nc3sc(C(=O)N4CCN(C5CCN(C)CC5)CC4)cc3cc2c1	-3.1%

(next part)
mol	nsP2pro inh
CSC1=NC2(CCN(C(=O)NC3CCCCC3)CC2)N=C1c1ccc(C(C)(C)C)cc1	-11.3%
O=C(NCc1ccc(F)cc1)c1ccc2nnc(-c3cc[nH]c3)n2c1	-1.0%[39.2 µM]
C#C[C@]1(O)CC[C@H]2[C@@H]3[C@H](C)CC4=C(CCC(=O)C4)[C@H]3CC[C@@]21C	3.3%
O=C(O)[C@@H]1C(=CCO)O[C@@H]2CC(=O)N12	13.0%[10 µM]
CC(C)S(=O)(=O)N[C@H]1CCOC[C@@H]1c1ccc(-c2ccc(C#N)s2)cc1	5.6%
FC(F)(F)c1ccc(-c2nc(NCc3ccc(-c4ccnc(C(F)(F)F)c4)cc3)c3ccccc3n2)cc1	-5.0%
Fc1ccc(CSc2nc(NCc3ccccc3)c3ccccc3n2)cc1	3.5%
CC(C)NC(=O)N(C1CCOCC1)C1CNC1	4.5%
COCC(=O)N1CC(C(=O)NCCc2ccc(OC)cc2)CC(c2ccc(F)c(C)c2)C1 (stereo unspecified)	-1.6%
O=c1c(O[C@@H]2O[C@H](CO)[C@H](O)[C@H](O)[C@H]2O)c(-c2ccc(O)c(O)c2)oc2cc(O)cc(O)c12	45.4%[activator]
C[C@@H]1CCC[C@H](C)N1NC(=O)c1ccc(Cl)c(S(N)(=O)=O)c1	-3.9%
CCC(C)(O)C(O)C(=O)OCc1ccc(O[C@@H]2O[C@H](CO)[C@@H](O)[C@H](O)[C@H]2O)cc1 (stereo partly specified)	?
O=C(Cn1c(=O)n(Cc2ccco2)c(=O)c2oc3ccccc3c21)Nc1ccc(F)cc1F	-12.8%
CN1CCCCCCN(C(=O)Cc2c[nH]c3ccccc23)[C@H]2CCC[C@H]2C1=O	-20.0%
Cc1ccc2c(c1)cc1c(=O)n(CC(=O)NC3CCCCC3)nc(C)n12	-9.6%
Cc1ccccc1Cn1c(SCc2ccc(C(=O)NCCc3ccccc3)cc2)nc2ccncc21	20.2%
CCN1CCN(Cc2c(O)ccc3c(=O)c(Oc4ccccc4C(C)C)c(C(F)(F)F)oc23)CC1	-18.9%
COc1cc2c(c(OC)c1OC)-c1ccc(OC)c(=O)cc1[C@@H](NC(C)=O)CC2	-8.7%
COc1ccc(O)c(CN2CCCC(Nc3ccc(F)cc3)C2)c1 (stereo unspecified)	-9.2%
C[C@H]1O[C@@H](O[C@H]2CC[C@@]3(C)C(CC[C@]4(C)[C@@H]3C=CC3=C5CC(C)(C)CC[C@]5(CO)[C@H](O)C[C@@]34C)[C@]2(C)CO)[C@H](O)[C@@H](O[C@@H]2O[C@H](CO)[C@@H](O)[C@H](O)[C@@H]2O)[C@H]1O (stereo partly specified)	-0.3%
NC(=O)C1CCN(c2nc(-c3ccc(Oc4ccccc4)cc3)cs2)CC1	i
CO[C@H]1/C=C\C=C(\C)C(=O)NC2=CC(=O)C(NCCN(C)C)=C(C[C@@H](C)C[C@H](OC)[C@H](O)[C@@H](C)/C=C(/C)[C@@H]1OC(N)=O)C2=O	-20.0%
CC1(C)SC2C(NC(=O)Cc3ccccc3)C(=O)N2C1C(=O)O (stereo unspecified)	-4.5%
COc1cc(O)c(C(CC(=O)N2CCC(Cc3ccccc3)CC2)c2ccc(C)cc2)c(OC)c1 (stereo unspecified)	3.7%[39.2 µM]
Cc1cnc(-c2ccccc2)n1CC1CCN(S(=O)(=O)Cc2ccccc2F)CC1	i
COc1ccc(NC(=O)CCc2c(C)nc3c(-c4ccc(F)cc4)c(C)nn3c2C)c(OC)c1	-15.1%
Cc1cccc(Cc2cnc[nH]2)c1C	21.8%
COc1cccc(-c2nc(SC(C(C)=O)C(=O)N(C)C)c3c(=O)n(C)c(=O)n(C)c3n2)c1 (stereo unspecified)	-15.4%
COc1cccn(CC(=O)N2CCN(c3ccccc3C#N)CC2)c1=O	-26.8%
Cc1cc(Sc2ccc(Cl)cc2)nc2ccccc12	-24.5%
C[C@@H]1C(=O)O[C@H]2CC34[C@H]5C[C@@H](C(C)(C)C)C36[C@@H](OC(=O)[C@@H]6O)OC4(C(=O)O5)[C@]21O (stereo partly specified)	-8.0%
CCN(CC)C(=O)C1=C(C)Nc2nc3ccccc3n2C1c1ccccc1F (stereo unspecified)	-20.2%
CCN1C(=O)c2ccccc2S(=O)c2ccc(C(=O)N3CCN(c4cc(Cl)ccc4C)CC3)cc21 (stereo unspecified)	-10.6%
COc1cc(Cl)c(NC(=O)CC(C)S(=O)(=O)c2cc3c(cc2C)NC(=O)CO3)c(OC)c1 (stereo unspecified)	-18.0%
COc1cc(Br)c(C2CC(=O)Nc3cc4c(cc32)OCCO4)cc1OC (stereo unspecified)	-7.6%
COC(=O)c1ccccc1NS(=O)(=O)c1cc2c3c(c1)CC(=O)N3CCC2	?
C[C@@H](C1=C(CCN(C)C)Cc2ccccc21)c1ccccn1	-6.9%
Cc1ccc(C(=O)Nc2ccc(Oc3cc4cnn(C)c4cc3-c3cn[nH]c3)c(F)c2)c(=O)n1-c1ccc(F)cc1	39.4%
CCOC(=O)c1ccccc1NC(=O)N1CCCn2nc(C)cc21	?
CN1CCN(c2nc3c(c(=O)[nH]2)CCN(Cc2ccc4[nH]ccc4c2)CC3)CC1	i
CCNC(=O)[C@@H]1C[C@H](NC(=O)CCc2ccccc2)CN1Cc1cnc[nH]1	i
COC1CC(=C(c2cccs2)c2cccs2)C[N+](C)(C)C1 (stereo unspecified)	-5.2%
CCc1ccccc1NC(=O)Cn1nc(CC)n2c(cc3sccc32)c1=O	-15.7%
COC1CCC12CCN(Cc1ccc(C)o1)CC2 (stereo unspecified)	-17.9%
